Screens deposited in PubChem BioAssay by National Center for Advancing Translational Sciences (NCATS).
gsp ag: agonists of gsp mutant (McCune-Albright syndrome). gsp mutant cells, cAMP HTRF, 30 min; control for the full effect not named in the record. Potency, µM (highest dose often 76.9 µM), inactives show at the highest dose activation (cAMP increase), hits mostly activators. 340,000 compounds, 0.13% hits; active = well fitted activation curve with a large enough effect; inconclusive = small, poorly fitted or top-dose-only effect, or another doubt; inactive = no such curve, though single readings can be large or run the other way; cell line not stated here;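 note: phosphodiesterase inhibitor Ro 20-1724 added with compounds to block cAMP breakdown; potency is the fitted concentration of half-maximal effect; nearly all actives have a fitted effect of over 60% in size; about a fifth of the inactives were tested at one dose only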
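Cells in DMEM/10% FBS with G418 were pretreated with compounds in DMSO plus […] (300 uM stock) for 30 min at 37C. cAMP was measured by HTRF (cAMP-d2 plus anti-cAMP antibody-K) after 30 min at room temperature.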
Menin MLL FP FL: displaces fluorescein MLL peptide from human menin; Fluorescence polarization, fluorescein-MLL peptide displacement from menin; FP activity change, % at 61.4 µM; 290,000 tested, under 10 active; inconclusive = falling polarisation curve, or a change in total fluorescence; inactive = total fluorescence flat and polarisation flat or rising; no compound was filed as active; the % refers to the polarisation; negative = inhibition;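 note: % of control where 0% means no effect; inhibitors lower the polarisation; unlabelled MLL peptide was the positive control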
D2 agonist: human D2 receptor agonism in beta-arrestin assay | P14416 | DiscoveRx PathHunter D2 beta-arrestin, luminescence, 90 min; 100% = 57 uM dopamine signal | activation, % (no concentration beside the values) | 360,000 compounds, 0.084% hits | AID 624465; in the data active = activation above about 40%; inconclusive = about 15% to 40%; inactive = below about 15%; note: compound concentration not given in the record; the text of the record calls up to 30% inactive
Target sequence (P14416 whole entry, looked up): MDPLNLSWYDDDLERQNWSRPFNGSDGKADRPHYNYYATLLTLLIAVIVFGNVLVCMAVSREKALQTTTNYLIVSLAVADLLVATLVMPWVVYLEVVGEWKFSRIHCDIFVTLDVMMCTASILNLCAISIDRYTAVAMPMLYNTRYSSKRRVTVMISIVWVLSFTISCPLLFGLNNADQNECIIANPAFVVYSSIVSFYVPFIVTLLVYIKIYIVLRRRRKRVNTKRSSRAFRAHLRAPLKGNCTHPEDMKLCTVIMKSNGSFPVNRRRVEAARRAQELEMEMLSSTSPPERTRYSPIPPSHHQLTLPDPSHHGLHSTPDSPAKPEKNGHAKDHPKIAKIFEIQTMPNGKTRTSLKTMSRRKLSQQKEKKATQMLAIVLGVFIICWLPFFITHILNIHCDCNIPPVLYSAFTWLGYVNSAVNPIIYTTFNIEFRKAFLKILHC
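Agonist mode: compounds alone added to overnight-plated D2 PathHunter cells for 90 min at 37 C, with 57 uM final dopamine (EC100) defining full response. Beta-arrestin recruitment detected by chemiluminescent reagent, read after 1 h at ambient temperature.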
Sfp PPTase inh: Sfp phosphopantetheinyl transferase inhibition; Q9F4F7; Biochemical Sfp PPTase activity, qHTS; Potency, µM, inactives show max response, negative = inhibition, most hits filed as inhibitors; 310,000 compounds, 3.5% hits; active = well fitted inhibition curve with a large enough effect; inconclusive = small, poorly fitted or top-dose-only effect, or another doubt; inactive = no such curve, though single readings can be large or run the other way;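 note: the enzyme is Sfp with the accession as filed and its product quenches rhodamine fluorescence; potency is the fitted concentration of half-maximal effect; 0% = enzyme reaction without inhibitor and -100% = no enzyme wells; top concentration of the series not given in the record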
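Compounds were incubated with enzyme (final 15 nM) for 15 min at room temperature before substrate addition started the reaction. Fluorescence at 525 nm excitation, 598 nm emission was recorded immediately and after 30 minutes.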
PINK1 modulator: changes PINK1 expression. Potency, µM (titrated, usually from 76.6 µM), for inactives: top-dose activation (PINK1 increase), most hits filed as activators. 410,000 compounds, 0.2% hits. PINK1 immunofluorescence, high-content cytometry, 24 h; active = well fitted activation curve with a large enough effect; inconclusive = small, poorly fitted or top-dose-only effect; inactive = flat fitted curve, though single readings scatter; cell line not stated here;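 note: potency is the fitted concentration of half-maximal effect; % of control where 0% means no effect; nearly all actives have a fitted effect of over 65% in size; a mitochondrial uncoupler was the plate control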
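A stable cell line was treated with compounds at 5 concentrations for 24 hours, with CCCP as control. PINK1 levels and mitochondrial localization were measured by immunofluorescence with mitochondrial, cell and nuclear markers after fixation, read by laser-scanning cytometry.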
ClpP mod: qHTS Assay for Activators of ClpP. AID 651965, 2013. purified B. subtilis ClpP, FRET peptide cleavage, 20 min. Potency, µM (top dose mostly 57.5 µM), inactives show at the highest dose activity change, negative = active. 340,000 compounds, 1.9% hits. ATP-dependent Clp protease proteolytic subunit (Bacillus subtilis (strain 168)), P80244; active = well fitted falling curve with a large enough effect; inconclusive = small, poorly fitted or top-dose-only effect; inactive = no such curve, though single readings can be large or run the other way; note: potency is the fitted concentration of half-maximal effect; the source files actives as falling curves though it sought activators and does not explain the sign; nearly all actives have a fitted effect of over 65% in size; many hits overshoot -100%
Target sequence (P80244 whole entry, looked up): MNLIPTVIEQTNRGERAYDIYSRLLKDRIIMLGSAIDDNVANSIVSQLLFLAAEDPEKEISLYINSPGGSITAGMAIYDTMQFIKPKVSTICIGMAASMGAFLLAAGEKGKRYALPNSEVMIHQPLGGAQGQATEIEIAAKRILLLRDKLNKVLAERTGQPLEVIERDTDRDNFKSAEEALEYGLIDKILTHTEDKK
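ClpP 10 microg/mL final, pH 8 Tris/KCl buffer with BSA, glycerol, Tween-20; compound pinned in; FRET-FV substrate; RT 20 min; Ex320/Em430; ΔFRET vs ADEP 5.8 microM, DMSO, no enzyme.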
gsp antagonist: antagonizes gsp, the McCune-Albright syndrome mutation | gsp-mutant cells, cAMP HTRF, 30 min; control for the full effect not named in the record | Potency, µM (top dose mostly 76.9 µM), for the others: top-dose activity change, negative = inhibition, actives largely listed as inhibitors | 340,000 compounds, 0.4% hits | AID 624288; active = falling curve of any shape with a large fitted effect; inconclusive = falling curve, mostly with a smaller effect; inactive = flat or rising curve; cell line not stated here;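 note: intracellular cAMP measured with PDE inhibitor Ro 20-1724 present during compound exposure; potency is the fitted concentration of half-maximal effect; % is set by controls: 0 for no effect and ±100 for the full control effect; nearly all actives have a fitted effect of over 65% in size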
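G418-selected cells were plated in DMEM/10% FBS for 16-24 h at 37C, then treated with compounds plus the PDE inhibitor […] (300 uM solution added) for 30 min at 37C. Intracellular cAMP was measured by HTRF after 30 min lysis at room temperature.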
Starred values were filed as active, the others as inactive; ? = inconclusive; . = not tested or not shown; [ ] = remark or other dose.

SMILES	gsp ag	Menin MLL FP FL	D2 agonist	Sfp PPTase inh	PINK1 modulator	ClpP mod	gsp antagonist
CCOC(=O)C1(S(=O)(=O)c2ccc(Cl)cc2)CCN(Cc2ccccc2)CC1	3%	0.4	-4.1	6%	?	1.0%	-13%
O=C(Nc1ccccc1)N1CCC2(CC1)CCN(C(=O)c1cnccn1)CC2	.	3.1	.	10%	0.5%	.	.
N#CCc1ccc(Oc2ncccn2)cc1	-1%	-3.1	-1.5	10%	-0.1%	-0.3%	7%
O=S(=O)(NC1CCCCC1NCc1ccco1)c1ccc(Cl)cc1 (centres undefined)	?	4.0	0.2	4%	.	-2.5%	1%
Cn1c(NCCCN2CCOCC2)nc2c1c(=O)n(Cc1ccc(Cl)cc1Cl)c(=O)n2C	?	0.4	-1.8	-4%	2.5%	-0.5%	-3%
Cc1c(Cl)cnc(NC(=O)COC(=O)c2cccc(S(=O)(=O)N3CCc4ccccc4C3)c2)c1Cl	2%	3.3	0.0	2%	0.1%	?	-6%
CC(=O)Nc1ccc(NC(=O)[C@@H](NC(=O)c2cccc(C)c2)C(C)C)cc1	13%[15.4 µM]	.	-4.8	12%	4.9%	-3.0%	9%
Cc1cc([N+](=O)[O-])nn1CCC(=O)Nc1nccs1	0%[15.4 µM]	2.4	2.1	5%	3.4%	.	7%
COc1cc(S(=O)(=O)N2CCC(c3nc4ccccc4s3)CC2)ccc1S(=O)(=O)NC1CCCC1	-1%	-1.3	1.0	1%	.	-1.4%	-4%
COc1cc2c(cc1OC)-c1nnc(-c3cccs3)n1C(C)(C)C2	-6%	.	5.2	.	0.5%	3.6%	6%
COc1cccc(NC(=O)Cn2c(SCC(=O)N3CCOCC3)nc3ccccc32)c1	-23%	3.5	-1.6	16%	-2.1%[38.3 µM]	-0.4%	7%
CCOC(=O)C(NC(=O)c1ccccc1)=C1C=C(C)OC(C)=C1	12%	1.8	-1.0	10%	0.7%	-12%	5%
CCC(C)C(=O)Nc1nc(C)c(-c2csc(Nc3ccccc3OC)n2)s1 (centres undefined)	-7%	5.7	-8.1	1%	3.6%	?	-1%
CC(=O)c1ccc(N2CCN(c3ccnc4cc(Cl)ccc34)CC2)cc1	-2%[15.4 µM]	0.0	3.1	-14%	1.9%	.	?
O=C(/C=C/[C@H]1O[C@@H](n2ccc(=O)[nH]c2=O)[C@H](O)[C@@H]1O)N1CCN(Cc2ccc(F)cc2)CC1	.	.	4.5	.	2.4%	1.0%	.
CCn1c(-c2ccccc2SC)n[nH]c1=S	-5%[15.4 µM]	-1.2	-4.2	8%	0.3%	.	.
C=C(C)C(=O)Nc1cccc(C2=NOC3(C2)C[C@H](C(N)=O)N(C(=O)c2ccccc2C(=O)c2ccccc2)C3)c1 (some centres undefined)	-5%	4.7	-3.4	-4%	-1.3%	-3.4%	4%
CCc1c(C)c2c(C)[nH]nc2oc1=O	28%	-0.9	-2.3	11%	4.5%	-13%	3%
CC(C)c1ccc(S(=O)(=O)N2CCN(C(=S)NCc3ccco3)CC2)cc1	6%	-1.8	-2.8	?	1.2%	1.2%	-13%
O=S(=O)(Cc1ccc(Cl)cc1)Oc1ccc(Cl)cc1	13%	.	?	.	4.1%	.	5%
COC(=O)c1ccc(-n2c(C)nc(=O)c(-c3ccccc3)c2C)cc1	3%	-0.3	0.5	12%	.	-4.3%	4%
CC#CC(=O)N1CCC(C(=O)Nc2ccc(Oc3ccccc3)nc2)CC1	?	-1.8	-0.4	8%	0.0%	-0.6%	6%
COc1ccc(CCNC(=O)CCCCn2c(=O)[nH]c3ccccc3c2=O)cc1OC	-16%	2.3	-3.1	12%	3.7%	-18%	9%
COc1ccc(NC(=O)C2CCC(CNc3c(N4CCCCC4)c(=O)c3=O)CC2)c(OC)c1 (centres undefined)	-25%[15.4 µM]	4.1	-3.9	-6%	1.4%	.	-6%
COc1ccc(CN(C)C(=O)COC(=O)c2cnc(Cl)c(Cl)c2)cc1	5%[15.4 µM]	.	0.5	.	5.3%	.	-13%
Cn1c(Cl)c(/C=N/OC(=O)C2CC2)c2ccccc21	-58%[inhibitor]	-0.4	-1.7	5%	1.1%	-3.8%	-2%
CCN(CC)C(=O)C1=C(C)N(Cc2ccc(OC)cc2)C(=O)C(CC(=O)NCCc2ccccn2)C1 (centres undefined)	-65%[inhibitor]	.	-3.8	.	-1.3%	-2.3%	.
CCCN1CCN(CC(=O)Nc2cc(OCC)ccc2OCC)CC1	-5%	-8.9	-0.2	-22%	1.3%	0.6%	-8%
COCCCN(CCC#N)C(=O)c1c(-c2c(Cl)cccc2Cl)noc1C	13%[15.4 µM]	-2.4	-4.4	5%	-1.1%	-0.1%	-4%
CCOc1ccc(NC(=O)c2ccc(NCC(=O)N3CCCCCC3)cc2)cc1	6%	0.0	2.3	14%	5.4%	-1.3%	-18%
COc1cc(C2Nc3ccc4ccccc4c3C3=C2C(=O)CC(C)(C)C3)ccc1OCC(=O)O (centres undefined)	24%	10	5.4	3%	0.7%	4.0%	-5%
O=C(Nc1nc2ccccc2s1)c1ccccc1[N+](=O)[O-]	-28%	-8.5	-5.7	-3%	5.8%	1.5%	-18%
CC(=O)N(CCc1ccccc1C)Cc1cc2cc(C)ccc2[nH]c1=O	-2%	0.4	13	5%	-0.4%	?	-17%
Cc1onc(-c2ccccc2Cl)c1C(=O)Nc1nnc(Cc2ccc(Cl)cc2)s1	2%	2.5	0.9	22%	0.2%	-2.6%	-19%
CSCCC(NC(=O)c1ccccc1)C(=O)NCCc1ccc2c(c1)OCCO2 (centres undefined)	-10%[15.4 µM]	.	1.2	.	-0.2%	-1.1%	2%
O=C(NCC1OCCCN1S(=O)(=O)c1cc(F)ccc1F)C(=O)NC1CCCCC1 (centres undefined)	20%	-0.4	-1.8	18%	3.6%	0.9%	1%
O=C(CCN1C(=O)S/C(=C\c2ccccc2)C1=O)Nc1ccc(O)cc1C(=O)O	-38%	.	-0.8	4%	-0.2%	-4.0%	-2%
c1coc(CNC2CCCCC2)c1	5%	-0.4	-3.4	?	-1.1%	-0.5%	19%
CSc1ccc(CN2CCC2(C)C(=O)Nc2cccc(NS(C)(=O)=O)c2)cc1 (centres undefined)	.	.	-4.4	.	4.5%	2.3%	.
COC(=O)c1ccc(N2NC(=O)/C(=C/c3ccc(-c4ccc(Cl)c(C(=O)O)c4)o3)C2=O)cc1	2%[15.4 µM]	13	-3.2	-10%	0.3%	.	-5%
O=C(CSc1nc2ccsc2c(=O)n1NC(=O)c1ccccc1)Nc1nccs1	-2%	3.0	-2.4	3%	3.1%[38.3 µM]	1.4%	-7%
Clc1ccc(-c2csc(N3CCCCCC3)n2)cc1	-5%	2.3	2.6	-20%	16%	0.3%	0%
c1ccc(CCNc2nc(-c3cccnc3)cs2)cc1	-18%	-0.8	0.1	-24%	-1.7%[38.3 µM]	-2.6%	9%
O=C(Nc1nnc(C2CC2)s1)c1cc2ccccc2o1	1%[15.4 µM]	.	1.6	.	3.1%	.	-24%
COc1ccc(N(C)S(=O)(=O)c2ccc(Cl)c(C(=O)NNC(=O)c3ccccc3O)c2)cc1	0%[15.4 µM]	.	-2.8	.	1.7%	-1.9%	-9%
O=C(Nc1ccncc1)C1CC(=O)N(c2ccccc2)C1 (centres undefined)	13%[15.4 µM]	.	-3.0	.	-0.4%	.	5%
CC(=O)c1cc2c(cc1NS(=O)(=O)c1ccc(C)cc1)OCCO2	13%	0.3	-3.3	5%	8.2%	0.6%	8%
COc1ccccc1C1C(C(N)=O)=C(C)Nc2nc(-c3ccccc3Cl)nn21 (centres undefined)	-11%	-0.7	0.5	13%	0.7%	2.3%	5%
CCN(CC)CCOC(=O)c1ccc(NC(=O)CNC(=O)c2ccccc2)cc1	-10%	3.4	-1.7	11%	-0.9%	.	4%
Cc1cc(=O)oc(C)c1C(=O)N1CCN(C)CC1	16%	1.3	-2.7	26%	-0.5%	-1.9%	5%
O=C(C[n+]1ccc(C(=O)N/N=C/c2ccc(O)cc2)cc1)c1ccccc1	-15%[15.4 µM]	6.7	-1.8	?	1.5%	1.3%	-3%
COc1ccc(N2CCN(S(=O)(=O)c3ccc4oc(=O)ccc4c3)CC2)cc1	-21%[15.4 µM]	.	-3.5	16%	-1.2%	.	5%
CCOC(=O)N1CCC(NC(=O)c2ccc3c(c2)N(CC)CCS3)CC1	-71%[inhibitor]	.	1.1	.	2.5%	4.0%	-18%
COc1cc2c(cc1OC)C(=O)NCC(C)(C)O2	-17%	2.8	-4.9	14%	1.0%	-17%	8%
Cc1nn(Cc2cccc(C(=O)Nc3ccn(Cc4c(F)c(F)cc(F)c4F)n3)c2)c(C)c1[N+](=O)[O-]	-40%[inhibitor]	0.5	2.7	?	2.1%[38.3 µM]	1.1%	-2%
O=C(Cn1cc2c(n1)CCCCC2)NC1CCN(Cc2ccccc2)CC1	-5%	1.1	-4.1	14%	-3.2%	-1.1%	13%
Cc1ccccc1Nc1nnc(SCC(=O)NC(=O)NCc2ccco2)s1	-1%	2.0	-2.3	-18%	12%	-0.5%	5%
CCOc1ccccc1NC(=O)C1CCCN(c2c(CC)c(C)nc3ncnn23)C1 (centres undefined)	18%	-0.7	-2.1	9%	-3.0%	.	4%
Cc1cccc(OCCNC(=S)NC(=O)c2cncc(Br)c2)c1	-75%[inhibitor]	-3.8	-6.1	9%	6.7%	-1.3%	-5%
N#Cc1ccc(CN2CCC3(CC2)CCN(C(=O)c2cc(C(F)(F)F)cc(C(F)(F)F)c2)CC3)cc1	.	3.3	.	7%	0.2%	.	.

New compounds follow:
SMILES	gsp ag	Menin MLL FP FL	D2 agonist	Sfp PPTase inh	PINK1 modulator	ClpP mod	gsp antagonist
Cn1nccc1-c1ccc(C(=O)NCc2ccco2)c2occc12	.	.	-3.4	.	0.6%	?	.
CCSc1nc2cc(OC)c(OC)cc2c(=O)n1CC	0%	4.1	-1.7	4%	-2.5%	-5.7%	18%
Cc1c[n+](CC(=O)c2ccccc2)c(C)cn1	-6%	0.1	2.4	1%	1.5%	.	-2%
Cc1ccc2c(C)c(C(=O)N3CCN(c4ccncc4)CC3)oc2c1C	20%	.	-2.8	.	-0.3%	-1.4%	8%
